Ran FRET: inhibitors of Ran–importin-beta complex formation, primary screen, biochemical, CFP-Ran/YFP-importin-beta FRET, RCC1, cell-free (AID 434961); Regulator of chromosome condensation (Homo sapiens) + GTP-binding nuclear protein Ran …; CFP-Ran/YFP-importin-beta FRET, cell-free; hits give high values; inhibition, %; 7,700 tested, 0.2% active;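 active = more than half of the replicate wells above 15% inhibition; inconclusive = exactly half above it; inactive = fewer than half above it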;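 note: 0% = DMSO wells and 100% inhibition = RanGDP control wells on each plate; stock of unstated strength diluted about 400-fold; mean of two wells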
Starred values were filed as active, the others as inactive; ? = inconclusive.

C[C@@H]1CCCCO[C@H](CN(C)C(=O)CCCN(C)C)[C@H](C)CN([C@@H](C)CO)C(=O)c2cc(NS(=O)(=O)c3ccccc3)ccc2O1
  Ran FRET: -2.8
C[C@@H]1CCCCO[C@@H](CN(C)C)[C@@H](C)CN([C@H](C)CO)C(=O)c2cc(NS(=O)(=O)c3cn(C)cn3)ccc2O1
  Ran FRET: 4.3
CNC[C@@H]1Oc2ccc(NC(=O)CCN3CCOCC3)cc2C(=O)N([C@@H](C)CO)C[C@H]1C
  Ran FRET: 2.8
C[C@H]1CCCCO[C@@H](CN(C)C)[C@@H](C)CN([C@@H](C)CO)C(=O)c2cc(NC(=O)CCC(F)(F)F)ccc2O1
  Ran FRET: -1.8
C[C@@H]1CN([C@@H](C)CO)C(=O)Cc2cc(NC(=O)Cn3cnnn3)ccc2O[C@@H]1CN(C)C(=O)NC1CCCCC1
  Ran FRET: 6.2
C[C@H]1CN([C@@H](C)CO)C(=O)c2cccc(NS(=O)(=O)c3cccs3)c2O[C@@H]1CN(C)Cc1ccc(-c2ccccc2)cc1
  Ran FRET: 2.9
C[C@@H]1CN([C@@H](C)CO)C(=O)CCCn2cc(nn2)CO[C@H]1CN(C)S(=O)(=O)c1ccc(Cl)cc1
  Ran FRET: -1.8
C[C@@H]1CCCCO[C@@H](CN(C)C)[C@H](C)CN([C@H](C)CO)C(=O)c2cc(NS(=O)(=O)c3cn(C)cn3)ccc2O1
  Ran FRET: 0.3
CNC[C@H]1Oc2c(NC(=O)c3cnccn3)cccc2C(=O)N([C@H](C)CO)C[C@@H]1C
  Ran FRET: -5.3
C[C@@H]1CN([C@@H](C)CO)C(=O)Cc2cc(NC(=O)Cc3cn(C)c4ccccc34)ccc2O[C@@H]1CN(C)C(=O)NC1CCCCC1
  Ran FRET: -4.3
COc1ccc(S(=O)(=O)N(C)C[C@H]2Oc3ccc(NC(=O)Nc4ccc(C(F)(F)F)cc4)cc3CC(=O)N([C@H](C)CO)C[C@@H]2C)cc1
  Ran FRET: 5.8
CC(C)NC(=O)Nc1ccc2c(c1)C(=O)N([C@H](C)CO)C[C@H](C)[C@@H](CN(C)S(=O)(=O)c1ccccc1)OCCCC[C@H](C)O2
  Ran FRET: -0.9
COc1ccc(S(=O)(=O)N(C)C[C@H]2Oc3c(NS(=O)(=O)c4cn(C)cn4)cccc3C(=O)N([C@@H](C)CO)C[C@@H]2C)cc1
  Ran FRET: 5.8
COc1ccc(NC(=O)Nc2cccc3c2O[C@@H](CN(C)S(=O)(=O)c2ccc(Cl)cc2)[C@H](C)CN([C@H](C)CO)C3=O)cc1
  Ran FRET: 8.9
C[C@@H]1CN([C@@H](C)CO)C(=O)c2cc(NC(=O)Nc3ccc(C(F)(F)F)cc3)ccc2O[C@@H](C)CCCCO[C@@H]1CN(C)C
  Ran FRET: ?
Cc1noc(C)c1NC(=O)Nc1ccc2c(c1)C(=O)N([C@@H](C)CO)C[C@H](C)[C@H](CN(C)C(=O)NC1CCCCC1)O2
  Ran FRET: -0.5
C[C@H]1CN([C@@H](C)CO)C(=O)CCCn2nncc2CO[C@@H]1CN(C)C(=O)c1ccccc1
  Ran FRET: -3.6
C[C@@H]1CN([C@H](C)CO)C(=O)Cc2cc(NC(=O)Cn3cnnn3)ccc2O[C@H]1CN(C)C(=O)Nc1cccc2ccccc12
  Ran FRET: -2.7
COc1ccc(CN(C)C[C@H]2Oc3c(NC(=O)c4ccc(-c5nccs5)cc4)cccc3C(=O)N([C@@H](C)CO)C[C@@H]2C)cc1
  Ran FRET: 1.3
CNC[C@@H]1OCCCC[C@@H](C)Oc2ccc(NS(=O)(=O)c3c(C)noc3C)cc2C(=O)N([C@@H](C)CO)C[C@H]1C
  Ran FRET: 1.6
COc1ccc(CN(C)C[C@H]2Oc3c(NC(=O)Nc4c(C)noc4C)cccc3C(=O)N([C@@H](C)CO)C[C@H]2C)cc1
  Ran FRET: -3.2
C[C@@H]1CN([C@@H](C)CO)C(=O)c2cc(NC(=O)C3CCCCC3)ccc2O[C@@H](C)CCCCO[C@H]1CN(C)C(=O)Nc1ccccc1
  Ran FRET: 1.9
C[C@@H]1CCCCO[C@H](CN(C)C(=O)CCC(F)(F)F)[C@@H](C)CN([C@@H](C)CO)C(=O)c2cc(NC(=O)c3ccncc3)ccc2O1
  Ran FRET: -0.3
Cc1noc(C)c1S(=O)(=O)Nc1cccc2c1O[C@@H](CN(C)Cc1ccccc1)[C@@H](C)CN([C@@H](C)CO)C2=O
  Ran FRET: -3.5
Cc1noc(C)c1S(=O)(=O)Nc1cccc2c1O[C@H](CN(C)C(=O)Nc1ccc(C(F)(F)F)cc1)[C@H](C)CN([C@@H](C)CO)C2=O
  Ran FRET: -3.9

Not a retest: entries from further up.
C[C@@H]1CCCCO[C@H](CN(C)C(=O)CCCN(C)C)[C@H](C)CN([C@@H](C)CO)C(=O)c2cc(NS(=O)(=O)c3ccccc3)ccc2O1
  Ran FRET: -2.8
C[C@@H]1CCCCO[C@@H](CN(C)C)[C@@H](C)CN([C@H](C)CO)C(=O)c2cc(NS(=O)(=O)c3cn(C)cn3)ccc2O1
  Ran FRET: 4.3
CNC[C@@H]1Oc2ccc(NC(=O)CCN3CCOCC3)cc2C(=O)N([C@@H](C)CO)C[C@H]1C
  Ran FRET: 2.8
C[C@H]1CCCCO[C@@H](CN(C)C)[C@@H](C)CN([C@@H](C)CO)C(=O)c2cc(NC(=O)CCC(F)(F)F)ccc2O1
  Ran FRET: -1.8

(more compounds)
C[C@H]1CN([C@@H](C)CO)C(=O)Cc2cc(NC(=O)Nc3ccc(F)cc3)ccc2O[C@H]1CN(C)C(=O)NC1CCCCC1
  Ran FRET: -6.7
C[C@H]1CN([C@@H](C)CO)C(=O)c2cccc(NC(=O)Nc3cccc4ccccc34)c2O[C@H]1CN(C)Cc1ccncc1
  Ran FRET: 3.4
C[C@H](CO)N1C[C@H](C)[C@@H](CN(C)C(=O)Nc2ccc(F)cc2)Oc2ccc(NC(=O)Cc3ccccc3)cc2C1=O
  Ran FRET: 3.7
C[C@H](CO)N1C[C@H](C)[C@H](CN(C)Cc2ccc(C(=O)O)cc2)Oc2c(NC(=O)NC3CCCCC3)cccc2C1=O
  Ran FRET: 2.5
C[C@H](CO)N1C[C@H](C)[C@H](CN(C)C)OCc2cnnn2CCCC1=O
  Ran FRET: 2.6
C[C@H]1CN([C@@H](C)CO)C(=O)CCCn2nncc2CO[C@H]1CN(C)S(=O)(=O)c1ccc(Cl)cc1
  Ran FRET: 7.9
Cc1noc(C)c1NC(=O)Nc1ccc2c(c1)C(=O)N([C@H](C)CO)C[C@H](C)[C@H](CN(C)C(=O)CCCN(C)C)OCCCC[C@@H](C)O2
  Ran FRET: 1.7
CNC[C@@H]1Oc2ccc(NC(=O)CCC(F)(F)F)cc2C(=O)N([C@H](C)CO)C[C@H]1C
  Ran FRET: 1.8
COc1ccc(NC(=O)Nc2ccc3c(c2)CC(=O)N([C@H](C)CO)C[C@H](C)[C@@H](CN(C)C)O3)cc1
  Ran FRET: -2.2
C[C@@H]1CN([C@@H](C)CO)C(=O)c2cccc(NC(=O)NC3CCCCC3)c2O[C@@H]1CN(C)C(=O)Nc1ccccc1
  Ran FRET: 3.7
C[C@H]1CN([C@@H](C)CO)C(=O)c2cccc(NC(=O)Nc3ccc(C(F)(F)F)cc3)c2O[C@@H]1CN(C)C
  Ran FRET: -0.9
C[C@H](CO)N1C[C@H](C)[C@@H](CN(C)C)OCCCC[C@H](C)Oc2ccc(NC(=O)c3ccncc3)cc2C1=O
  Ran FRET: -0.8
CNC[C@H]1OCCCC[C@@H](C)Oc2ccc(NS(=O)(=O)c3cccs3)cc2C(=O)N([C@H](C)CO)C[C@@H]1C
  Ran FRET: 0.5
C[C@@H]1CN([C@@H](C)CO)C(=O)c2cc(NS(=O)(=O)c3ccccc3)ccc2O[C@@H](C)CCCCO[C@H]1CN(C)C(=O)C1CCCCC1
  Ran FRET: 0.7
C[C@@H]1CN([C@H](C)CO)C(=O)c2cccc(NC(=O)NC3CCCCC3)c2O[C@H]1CN(C)S(=O)(=O)c1cccs1
  Ran FRET: -1.4
CC(C)NC(=O)N(C)C[C@@H]1Oc2c(NC(=O)C3CCOCC3)cccc2C(=O)N([C@H](C)CO)C[C@@H]1C
  Ran FRET: -1.9
COc1ccc(CN(C)C[C@H]2Oc3c(NC(=O)c4ccc(-c5nccs5)cc4)cccc3C(=O)N([C@H](C)CO)C[C@@H]2C)cc1
  Ran FRET: 1.5
C[C@@H]1CN([C@H](C)CO)C(=O)c2cc(NC(=O)C3CC3)ccc2O[C@H]1CN(C)C(=O)Nc1ccc(C(F)(F)F)cc1
  Ran FRET: 2.7
C[C@H](CO)N1C[C@H](C)[C@@H](CN(C)S(=O)(=O)c2cccs2)Oc2c(NC(=O)Nc3cccc4ccccc34)cccc2C1=O
  Ran FRET: 1.0
C[C@H]1CN([C@@H](C)CO)C(=O)c2cc(NC(=O)C3CC3)ccc2O[C@H]1CN(C)C(=O)Nc1ccc(F)cc1
  Ran FRET: -3.2
Cc1noc(C)c1S(=O)(=O)Nc1ccc2c(c1)C(=O)N([C@H](C)CO)C[C@@H](C)[C@@H](CN(C)C)OCCCC[C@H](C)O2
  Ran FRET: -0.4
C[C@H]1CN([C@@H](C)CO)C(=O)c2cc(NS(C)(=O)=O)ccc2O[C@@H]1CN(C)CC1CC1
  Ran FRET: 2.2
C[C@H](CO)N1C[C@H](C)[C@@H](CN(C)CC2CC2)Oc2c(NC(=O)Nc3ccc(C(F)(F)F)cc3)cccc2C1=O
  Ran FRET: 0.5
Cc1ccc(S(=O)(=O)N(C)C[C@H]2Oc3ccc(NS(C)(=O)=O)cc3C(=O)N([C@@H](C)CO)C[C@H]2C)cc1
  Ran FRET: -1.3
C[C@@H]1CN([C@H](C)CO)C(=O)CCCn2cc(nn2)CO[C@@H]1CN(C)C(=O)c1ccc2ccn(C)c2c1
  Ran FRET: 0.4

C[C@H](CO)N1C[C@H](C)[C@H](CN(C)S(=O)(=O)c2ccccc2)OCCCC[C@H](C)Oc2ccc(NS(C)(=O)=O)cc2C1=O
  Ran FRET: -0.9
CNC[C@@H]1Oc2ccc(NC(=O)Nc3ccccc3)cc2CC(=O)N([C@@H](C)CO)C[C@H]1C
  Ran FRET: -7.0
C[C@H](CO)N1C[C@H](C)[C@@H](CN(C)S(=O)(=O)c2cccs2)OCc2cn(nn2)CCCC1=O
  Ran FRET: 0.1
CC(C)NC(=O)Nc1ccc2c(c1)C(=O)N([C@H](C)CO)C[C@H](C)[C@@H](CN(C)C(=O)Cc1ccccc1)OCCCC[C@H](C)O2
  Ran FRET: -3.1
C[C@@H]1CN([C@@H](C)CO)C(=O)Cc2cc(NS(=O)(=O)c3cccs3)ccc2O[C@@H]1CN(C)CC1CC1
  Ran FRET: 2.8
C[C@H]1CN([C@@H](C)CO)C(=O)CCCn2nncc2CO[C@@H]1CN(C)Cc1ccc2c(c1)OCCN2C
  Ran FRET: -3.7
C[C@H]1CN([C@@H](C)CO)C(=O)Cc2cc(NC(=O)NC3CCCCC3)ccc2O[C@@H]1CN(C)C(=O)NC1CCCCC1
  Ran FRET: -1.3
CC(C)NC(=O)Nc1ccc2c(c1)C(=O)N([C@H](C)CO)C[C@H](C)[C@H](CN(C)C(=O)CCCN(C)C)OCCCC[C@H](C)O2
  Ran FRET: -0.3
COc1ccc(NC(=O)Nc2cccc3c2O[C@@H](CN(C)S(=O)(=O)c2cccs2)[C@@H](C)CN([C@@H](C)CO)C3=O)cc1
  Ran FRET: 3.1
C[C@H]1CN([C@@H](C)CO)C(=O)c2cccc(N(C)C)c2O[C@@H]1CN(C)C(=O)Nc1cccc2ccccc12
  Ran FRET: 0.4
C[C@H](CO)N1C[C@H](C)[C@H](CN(C)C(=O)NC2CCCCC2)Oc2c(NC(=O)Nc3ccc4c(c3)OCO4)cccc2C1=O
  Ran FRET: ?
C[C@H](CO)N1C[C@H](C)[C@@H](CN(C)C(=O)c2ccccc2)OCCCC[C@H](C)Oc2ccc(NC(=O)Nc3ccc4c(c3)OCO4)cc2C1=O
  Ran FRET: 0.7
C[C@@H]1CCCCO[C@@H](CN(C)S(=O)(=O)c2cn(C)cn2)[C@@H](C)CN([C@@H](C)CO)C(=O)c2cc(N(C)C)ccc2O1
  Ran FRET: 1.9
C[C@H]1CN([C@@H](C)CO)C(=O)c2cccc(NC(=O)Nc3ccc(C(F)(F)F)cc3)c2O[C@@H]1CN(C)S(=O)(=O)c1ccc(Cl)cc1
  Ran FRET: -0.4
C[C@@H]1CN([C@@H](C)CO)C(=O)c2cccc(N(C)C)c2O[C@H]1CN(C)Cc1ccccc1
  Ran FRET: -8.8
C[C@@H]1CN([C@H](C)CO)C(=O)c2cccc(NC(=O)C3CCOCC3)c2O[C@@H]1CN(C)Cc1ccc(Oc2ccccc2)cc1
  Ran FRET: -4.0
C[C@@H]1CN([C@@H](C)CO)C(=O)CCCn2cc(nn2)CO[C@@H]1CN(C)C(=O)c1ccc(N2CCN(C)CC2)cc1
  Ran FRET: -2.1
COc1ccc(NC(=O)Nc2ccc3c(c2)C(=O)N([C@@H](C)CO)C[C@@H](C)[C@@H](CN(C)S(=O)(=O)c2cn(C)cn2)O3)cc1
  Ran FRET: 5.1
Cc1noc(C)c1NC(=O)Nc1ccc2c(c1)C(=O)N([C@H](C)CO)C[C@@H](C)[C@@H](CN(C)C)O2
  Ran FRET: 0.2
C[C@@H]1CN([C@@H](C)CO)C(=O)Cc2cc(NS(C)(=O)=O)ccc2O[C@@H]1CN(C)C(=O)Nc1ccc(C(F)(F)F)cc1
  Ran FRET: 1.4
C[C@@H]1CN([C@H](C)CO)C(=O)c2cc(N(C)C)ccc2O[C@H]1CN(C)C
  Ran FRET: -2.2
C[C@@H]1CCCCO[C@@H](CN(C)C)[C@@H](C)CN([C@H](C)CO)C(=O)c2cc(NS(=O)(=O)c3cccs3)ccc2O1
  Ran FRET: ?
C[C@H](CO)N1C[C@H](C)[C@H](CN(C)C(=O)NC2CCCCC2)Oc2c(NC(=O)Nc3ccc(C(F)(F)F)cc3)cccc2C1=O
  Ran FRET: 2.5
C[C@@H]1CCCCO[C@@H](CN(C)Cc2ccncc2)[C@@H](C)CN([C@H](C)CO)C(=O)c2cc(NC(=O)c3ccncc3)ccc2O1
  Ran FRET: 1.8

Screening data: PubChem, Broad Institute

An excerpt; rates above refer to the full screens.
